CDC25B-CDK2 inh: primary biochemical HTRF screen for blockers of M-phase inducer phosphatase 2 binding to CDK2/cyclin A | P30305+P24941 | HTRF CDC25B-CDK2/CyclinA binding, anti-His/anti-Flag; stronger effect = higher value | z-score (test concentration not listed) | 0.72% of 94,000 active | AID 1259370, 2018;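 further: score is relative to mean and SD of negative controls; strong numbers were not always called active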
TAR Tat displ: TAR RNA-Tat peptide displacers, HIV-1, primary screen, biochemical, FRET, FAM/TAMRA-labeled Tat; HIV-1 TAR RNA, Tat peptide displacement FRET; stronger effect = higher value; z-score (no concentration beside the values); AID 1259389, 2018; 0.6% of 100,000 active;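 further: score is relative to mean and SD of negative controls; some compounds called inactive have numbers as strong as hits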
The depositor's hits bear a star; x = no result given.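 How the source made its calls: active means z-score from 3 up in half or more of its runs; inactive means the rest.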 Rows are unselected; about 0.97% have a hit in one of these screens.

SMILES | CDC25B-CDK2 inh | TAR Tat displ
COc1ccc2nc(NC(=O)C3CCC(CNc4c(N5CCCC5)c(=O)c4=O)CC3)sc2c1 (stereo not drawn) | -2.4 | x
COc1cc(SC)ccc1C(=O)N1CCC(Cc2ccccc2)CC1 | -0.42 | x
CCOC(=O)c1[nH]c(C)c(C(=O)NC2CCCC(C)C2C)c1C (stereo not drawn) | -1.1 | 0.78
CCc1n(CC(O)COc2ccc(C)cc2)c2ccccc2[n+]1C (stereo not drawn) | -2.4 | 1.3
O=C(Cn1cc(S(=O)(=O)c2ccccc2)c(=O)c2cc3c(cc21)OCO3)Nc1ccccc1 | -1.2 | 0.63
O=C1O[C@@H]2C[C@H]3C[C@@H]2[C@@H]1[C@H]3C(=O)N1CCC(C(O)(c2ccccc2)c2ccccc2)CC1 | -2.7 | 2.6
Cc1ccccc1-c1nc(SCC(=O)N2CCCC2)n2[nH]c(=O)cc2n1 | x | -0.13
COc1nc(NS(=O)(=O)c2ccc(C)cc2)nc(C)c1Cl | -1.9 | 0.47
O=C(CN1C(=O)c2cccnc2Sc2ccccc21)NCCN1CCOCC1 | x | 1.2
CC(C)[C@@H](N)C(O)(c1ccccc1)c1ccccc1 | -0.89 | x
Cc1ccc(S(=O)(=O)Nc2cc(Cl)c3oc4c(c3c2)C(=O)CCC4)c(C)c1 | -0.47 | -0.3
Cc1ccc(CN2CCc3nc(Nc4ccc5c(c4)OCCO5)ncc3C2)cc1 | x | 1.1
COc1ccc(C2C(C#N)=C(N)Oc3cc(C)n(CC4CCCO4)c(=O)c32)cc1Br (stereo not drawn) | 0.16 | x
CCc1ccc(S(=O)(=O)c2nnn3c2nc(NCCOC)c2cc(Cl)ccc23)cc1 | -2.2 | 1.9
Cc1ccc2c(c1)sc1nc(-c3ccc(Br)cc3)cn12 | -13 | 3.2
CCOc1ccccc1N1CC(c2nc3ccccc3n2C)CC1=O (stereo not drawn) | -0.95 | -0.23
O=C(Cn1c(=O)oc2ccccc21)N1CCOCC1 | x | 0.86
CCC(C(=O)NC1CCC(C)CC1)n1nc(C)c2sc3ccccc3c2c1=O (stereo not drawn) | -1.2 | 2.1
O=C1c2cccnc2C(=O)N1Cc1ccc(F)cc1S(=O)(=O)NC1CCCc2ccccc21 (stereo not drawn) | x | 0.75
N#CCCN(Cc1ccco1)C(=O)Nc1ccc(OC(F)(F)F)cc1 | -1.3 | x
Cc1ccc(-c2n[nH]c3c2cnc2ccc(C)cc23)cc1 | x | 1
CCC1CCc2c(sc(NC(=O)CCCC(=O)O)c2C(N)=O)C1 (stereo not drawn) | 0 | 3
O=C(CCS(=O)(=O)c1ccc2c(c1)CCN2C(=O)C1CC1)Nc1cccc(Cl)c1 | x | 1.1
O=C(Nc1ccccc1)c1[nH]nc2c1CCc1ccccc1-2 | x | -1.3
O=C(CSc1nc2nccnc2c(=O)n1CC1CCCO1)Nc1ccc(F)cc1 (stereo not drawn) | 0.04 | 0.54
CCN(CC)S(=O)(=O)c1ccc2nc(NC(C)=O)sc2c1 | x | 0.23
CCCNc1ncnc2onc(-c3ccc(Cl)cc3)c12 | x | 1.2
Cc1cc(F)ccc1S(=O)(=O)N1CCc2cc3ccccc3nc21 | 0.77 | -1.1
CCOCCOC(=O)C1=C(C)NC2=C(C(=O)CC(c3cccs3)C2)C1c1ccc(OC)c(O)c1 (stereo not drawn) | 0.54 | 0.55
O=C(COCc1cc(-c2cccs2)on1)NCc1ccccn1 | x | 0.89
CC(=O)N1CCOc2cc(S(=O)(=O)N3CCCC3)c(Cl)cc21 | x | 0.8
Cc1cccc(CSc2nc3c(c(=O)[nH]2)C(c2ccc(O)c(O)c2)CC(=O)N3)c1 (stereo not drawn) | -0.51 | 12*
CN(C)c1ccc(CN(CC2CCCO2)C(=O)c2ccc(F)cc2)cc1 (stereo not drawn) | -1.3 | -1.1
Cc1csc2nc(COC(=O)c3ccc(Br)cc3)cc(=O)n12 | x | -0.2
CC(C)C(NC(=O)c1ccco1)C(=O)Nc1ccc2c(c1)Sc1ccccc1C(=O)N2C (stereo not drawn) | x | 0.89
CCOc1cc(/C=C2\SC(N3CCN(C4=NC(=O)/C(=C\c5ccc(O)c(OCC)c5)S4)CC3)=NC2=O)ccc1O | 1.5 | x
CC1CN(C(=N)N)CC(C)O1 (stereo not drawn) | 0.02 | x
COc1cccc2c1Oc1ncccc1N(c1ccc(C(=O)N3CCCC3)s1)C2 | x | 0.32
O=C(CN1C2=NCCCN2c2ccccc21)c1ccccc1 | -0.5 | 2.8
COCc1nc2sc(C)c(C)c2c(=O)[nH]1 | -1.9 | -0.33
C=C(C)c1ccccc(=O)c1O | -2 | x
Cc1nc2sc(C(c3cccs3)N3CCC(C)CC3)c(O)n2n1 (stereo not drawn) | -1.4 | x
Cc1nn(C)c2[nH]c(=O)cc(-c3ccccc3)c12 | x | 1.9
O=C1c2ccccc2-c2c1cccc2C(=O)N1CCOCC1 | 17* | -0.31
Cn1nc(C(=O)NCCCN2CCCC2=O)c2c1-c1ccccc1SC2 | -2.2 | 1.6
CCOC(=O)c1cc(-c2ccccc2)sc1NC(=O)CN1CCc2ccccc21 | -1.5 | x
O=C(Nc1ccccc1)N1CCn2cccc2C1Cc1ccccc1 (stereo not drawn) | x | -0.54
O=S(=O)(NCCc1csc(-c2ccc(F)cc2)n1)c1ccccc1F | x | 0.74
COC(=O)C(C)Sc1nnc(-c2c[nH]c3ccccc23)n1-c1cc(OC)ccc1OC (stereo not drawn) | -2.6 | x
Cc1cc(-n2c(N)c(C(N)=O)sc2=S)ccc1Cl | -2.1 | 1.9
CNc1nc2c(c(=O)[nH]c(=O)n2C)n1CC(O)COc1ccc(Cl)cc1 (stereo not drawn) | -0.34 | 0.19
CC1(C)CC(=O)c2cn(-c3ccc(Cl)cc3)c(=O)c(C(=O)O)c2C1 | -0.9 | -0.44
COc1ccc(NS(=O)(=O)c2ccc3c(c2)C(C)(C)C(=O)N3C)c(OC)c1 | x | -0.63
CCNC(=O)Cn1cnc2c1c(=O)n(C)c(=O)n2C | -2.1 | x
CC(C)(C)c1nnc2sc(SCC(=O)Nc3ccccc3)nn2c1=O | x | 1.5
C[C@H](NC(=O)c1ccc(Cl)cc1Cl)C(=O)NCc1ccco1 | -1.8 | x
COc1ccc(N2C(=O)c3cccnc3C2Nc2ccc(OC)cc2OC)cc1 (stereo not drawn) | x | -8.2
O=C(O)c1ccc2c(c1)C1C3CCC(C3)C1C(c1ccccc1Cl)N2 (stereo not drawn) | 0.26 | 1.9
Cc1cncn1CCc1nc2c3ccccc3nc(SCc3cc(=O)n4ccccc4n3)n2n1 | 1.4 | x
CC(NC(=O)Nc1cccc(Cl)c1)c1c(-n2cccc2)sc2c1CCCC2 (stereo not drawn) | 1.6 | 1.1

Continued.
SMILES | CDC25B-CDK2 inh | TAR Tat displ
Nc1nc(SCc2cc(=O)n3nc(C4CC4)sc3n2)n[nH]1 | x | 0.84
COc1ccc(CCNc2ncnc3c2nnn3C)cc1OC | x | 1
COc1cc(OC)c(NC(=O)Cn2c(=O)oc3cc(S(=O)(=O)N4CCCC4)ccc32)cc1Cl | x | 1.5
CCCOC(=O)C1=C(C)NC2=C(C(=O)CC(c3ccccc3)C2)C1c1cccnc1 (stereo not drawn) | -1 | 1.2
CCc1ccc(NC(=O)CSc2nnc(C)n3c2cc2occc23)cc1 | x | -0.71
Cc1nn(CCCC(=O)N2CCCCC2C)c(=O)c2cc3occc3n12 (stereo not drawn) | -1.6 | -0.07
Cn1ncc2c(Nc3ccccc3)nc(NCc3ccco3)nc21 | x | 1.7
O=C(CSc1nccn(-c2ccc(F)cc2)c1=O)Nc1ccc(Cl)cc1F | -1.1 | -0.07
CC(C)CCNc1nc(N2CCN(C)CC2)c2cnn(C)c2n1 | x | 0.3
CCc1cc2c(=S)[nH]cnc2s1 | -0.86 | x
CCCCC(=O)N(c1ccccc1)C1C=CS(=O)(=O)C1 (stereo not drawn) | -2.7 | -7
COc1ccc(C(=O)c2oc3ccc4c(C)cc(=O)oc4c3c2C)cc1 | -3.7 | x
C=C1/C(=C\C=C2/CCC[C@]3(C)[C@@H]([C@H](C)/C=C/[C@@H](O)C4CC4)CC[C@@H]23)C[C@@H](O)C[C@@H]1O | x | 0.18
CC1(C)CC(=O)C2=C(C1)Nc1ccccc1N(C(=O)Nc1ccccc1Cl)C2c1ccco1 (stereo not drawn) | x | 0.59
c1cc2c(cc1N=C1SCC3CCCCN13)OCO2 (stereo not drawn) | -1.6 | x
CC1(C)Cc2c(c(N3CCOCC3)nc3sc4c(=O)[nH]nnc4c23)CO1 | -1.9 | 0.42
CCOC(=O)c1cnn(-c2nc(C)nc3sc4c(c23)CCC(C)C4)c1N (stereo not drawn) | x | 1.2
Cc1ccc(C)c(S(=O)(=O)Nc2ccc3c(c2)N(S(C)(=O)=O)CCC3)c1 | x | 2.2
CC1=NNC(=O)C1CC(=O)N/N=C/c1ccc(Cl)c(Cl)c1 (stereo not drawn) | -2.4 | x
O=S1(=O)C[C@H](NCCc2cccs2)[C@@H](S(=O)(=O)c2ccc(Cl)cc2)C1 | -2.6 | 0.92
Cn1c(=O)n(C)c2cc(N3CCCCC3)c(NC(=O)c3sc4ccccc4c3Cl)cc21 | -0.58 | 0.05
O=C(O)c1cc(-c2ccccc2)n[nH]1 | x | 2.1
CCCCOC(=O)C1=C(C)NC2=C(C(=O)CC(C)(C)C2)C1c1ccccc1Br (stereo not drawn) | -0.67 | 1.2
Cc1nc2ccccc2c2oc(C(=O)N3CCN(C(=O)c4ccco4)CC3)cc12 | -1.3 | 1.5
Cc1cc2n(n1)CCCN2C(=O)CCC(=O)NCCCN1CCN(C2CCCCC2)CC1 | x | 1.6
O=C1CC(c2ccccc2Cl)N=C(NC(=O)c2ccc3c(c2)OCO3)N1 (stereo not drawn) | x | -0.07
CC(C(=O)N1CCN(c2cc(=O)n(C)c(=O)n2C)CC1)N1C(=O)COc2ccccc21 (stereo not drawn) | x | 0.74
CN1CCN(c2nc(NCc3ccccc3Cl)c3cnn(C)c3n2)CC1 | x | 1.3
Cc1c(COC(=O)Nc2ccc(Cl)cc2Cl)sc2ccccc12 | -0.84 | x
CC(C)Cn1c(=O)c2c(c3ccccc31)OC(C)C(=O)N2 (stereo not drawn) | -1.4 | x
Cc1ccc(S(=O)(=O)Nc2cccc(-c3cn4ccccc4n3)c2)cc1C | 0.54 | 0.58
CCOC(=O)c1c(S(=O)(=O)N2CCN(C(=O)c3ccco3)CC2)c(C)n(C)c1C | x | 0.28
CC(C)(C)NC(=O)N1CCOCC1 | -1.8 | x
O=C(CN1N=NC2C(=O)N(c3ccc(Cl)cc3)C(=O)C21)Nc1cc(F)ccc1F (stereo not drawn) | x | -0.76
CCn1c(C(=O)NCc2cccs2)cc2oc3ccccc3c21 | 1.5 | x
Cc1cc(NS(=O)(=O)c2ccc(-c3n[nH]c(C)c3C)s2)ccc1Br | x | -2.5
O=c1[nH]nc(-c2ccccc2)nc1Cc1ccco1 | x | -1.6
CN(C)c1nc2c(c(=O)[nH]c(=O)n2C)n1Cc1ccc(F)cc1 | -0.4 | x
N#CC1=C2SCN(c3ccc(Br)cc3)CN2C(=O)CC1c1ccccc1 (stereo not drawn) | 6* | -5
CC1CCN(CC(=O)ON=C(c2ccc(F)cc2)c2ccc(F)cc2)CC1 | 0.78 | x
O=C(Nc1ccccc1)Nc1nnc(CC(=O)N2CCCC2)s1 | x | 0.87
O=C1C2C3C=CC(CC3)C2C(=O)N1c1cccc(Cl)c1 (stereo not drawn) | -0.2 | -1.6
COc1ccc(Oc2c(C(F)(F)F)oc3cc(O)ccc3c2=O)cc1 | -1.4 | x
Cn1c2c(c(=O)n(C)c1=O)CN(CC1CCN(Cc3ccccc3F)CC1)CN2 | 0.94 | 0.32
CCOc1ccc(/C=C/c2nc(-c3ccc(Cl)cc3)no2)cc1OCC | -1.2 | 0.17

Screens deposited in PubChem by Center for Chemical Genomics, University of Michigan.
